# HIV Env fusion – inhibitors of HIV-1 Env-driven cell-cell fusion, primary screen, HeLa-JRFL effector, CEM21 target cells, luciferase | 1.1% of 360,000 active | inhibition, % at 12.3 µM | AID 651610, 2012;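 active means mean replicate inhibition score of at least 50 and every replicate individually at or above 50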;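 further: 0% = plate neutral controls and 100% = maraviroc near 300 nM; one replicate is shown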
# UUG fidelity – modulators of yeast start codon fidelity, primary screen, whole organism, S. cerevisiae, single point, plate reader. S. cerevisiae UUG-firefly luciferase reporter, luminescence/redox ratio. activity score, % at 18.7 µM. 0.13% of 350,000 active. AID 602363, 2012;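 active means replicate mean at a twofold rise or more, about +100% in these data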;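 further: firefly luciferase made from a UUG start codon reports start codon fidelity; reporter light over untreated wells divided by growth signal over untreated wells; some hits fall short of that in this replicate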
# The depositor's hits bear a star; & = joins results of further samples; [ ] = dose if it differs, or a comment.
SMILES,HIV Env fusion,UUG fidelity
C[C@@H]1CN([C@H](C)CO)C(=O)c2cc(NC(=O)Nc3ccc(F)cc3)ccc2O[C@@H]1CN(C)S(=O)(=O)c1cn(C)cn1,-24.2[16.7 µM],23.5
CCCC#Cc1ccc2c(c1)O[C@@H](CN(C)C(=O)c1cccnc1)[C@H](C)CN([C@@H](C)CO)S2(=O)=O,9.5[16.7 µM],4.5
C/C=C/c1ccc2c(c1)O[C@H](CN(C)Cc1ccncc1)[C@H](C)CN([C@@H](C)CO)S2(=O)=O,8.9[16.7 µM],-22.2
COc1ccc(NC(=O)Nc2ccc3c(c2)C(=O)N([C@H](C)CO)C[C@H](C)[C@H](CN(C)C(=O)Nc2ccc4c(c2)OCO4)OCCCC[C@@H](C)O3)cc1,-7.1[16.7 µM],-10.2
CCC(=O)N[C@@H]1CC[C@H](CC(=O)NCc2cc(F)cc(F)c2)O[C@H]1CO,-1.1[16.7 µM],-6.3
COc1ccccc1C#Cc1ccc2c(c1)O[C@@H](CN(C)C)[C@H](C)CN([C@H](C)CO)S2(=O)=O,-0.5[16.7 µM],0.9
COCC#Cc1cnc2c(c1)C(=O)N([C@H](C)CO)C[C@@H](C)[C@H](CN(C)S(=O)(=O)c1cccc(OC)c1)O2,-1.5[16.7 µM],19.0
CC(C)NC(=O)N(C)C[C@H]1OCCCC[C@H](C)Oc2ccc(NS(=O)(=O)c3ccc(Cl)cc3)cc2C(=O)N([C@H](C)CO)C[C@@H]1C,-202.2[16.7 µM],3.1
C[C@@H]1CCCCO[C@@H](CN(C)S(=O)(=O)c2cn(C)cn2)[C@@H](C)CN([C@@H](C)CO)C(=O)c2cc(NC(=O)Nc3ccc(F)cc3)ccc2O1,29.3[16.7 µM],3.7
CCCc1cn(CC[C@@H]2CC[C@H](NC(=O)Nc3ccccc3F)[C@H](CO)O2)nn1,24.3[16.7 µM],-2.2
COc1ccccc1C#Cc1cnc2c(c1)C(=O)N([C@H](C)CO)C[C@@H](C)[C@@H](CN(C)C(=O)CN(C)C)O2,-9.6[16.7 µM],0.3
C[C@@H]1CCCCO[C@H](CN(C)Cc2ccc3c(c2)OCO3)[C@H](C)CN([C@H](C)CO)C(=O)c2cc(NC(=O)CCC(F)(F)F)ccc2O1,4.0[16.7 µM],5.7
C[C@@H]1CN([C@@H](C)CO)C(=O)c2cc(NC(=O)Nc3ccc(F)cc3)ccc2O[C@@H]1CN(C)Cc1ccncc1,-4.6[16.7 µM],-8.8
COc1ccc(NC(=O)N(C)C[C@H]2Oc3cc(C#CCN(C)C)ccc3S(=O)(=O)N([C@H](C)CO)C[C@H]2C)cc1,-15.6[16.7 µM],15.3
O=C(NCC[C@@H]1CC[C@@H](NC(=O)C2CCC2)[C@@H](CO)O1)c1cnccn1,-33.2[16.7 µM],-15.0
N#C[C@@H]1[C@@H](c2ccc(/C=C/c3ccccc3)cc2)[C@@H](CO)N1C(=O)C1CCCC1,2.4[16.7 µM],-18.6
C=CCN1CCCc2c(-c3ccc(OCCO)cc3)noc2-c2cc(OC)c(OC)cc2CC1,7.7[16.7 µM],8.0
COc1ccc(S(=O)(=O)N(C)C[C@@H]2OCCCC[C@@H](C)Oc3ccc(NC(=O)Nc4ccc5c(c4)OCO5)cc3C(=O)N([C@H](C)CO)C[C@@H]2C)cc1,5.7[16.7 µM],-11.9
O=C(C[C@H]1C[C@@H]2c3cc(NC(=O)NC4CCCC4)ccc3O[C@@H]2[C@@H](CO)O1)NCCN1CCCCC1,-27.1[16.7 µM],-6.7
O=C(Cc1ccccn1)NCC[C@@H]1CC[C@@H](NS(=O)(=O)c2ccc(F)cc2)[C@@H](CO)O1,15.0[16.7 µM],12.0
C[C@@H]1CCCCO[C@@H](CN(C)C(=O)Nc2ccccc2)[C@@H](C)CN([C@H](C)CO)C(=O)c2cc(NS(=O)(=O)c3ccccc3)ccc2O1,5.1[16.7 µM],-2.6
C[C@@H]1CN([C@H](C)CO)C(=O)c2cc(NS(=O)(=O)c3ccccc3)ccc2O[C@@H]1CN(C)C(=O)Nc1ccccc1,9.6[16.7 µM],-12.8
CN1C(=O)c2cc(NC(=O)Nc3ccccc3)ccc2OC[C@@H]2O[C@@H](CC(=O)NC3CCC3)CC[C@H]21,30.3[16.7 µM],12.8
O=C(C[C@@H]1C=C[C@@H](NC(=O)C2CCC2)[C@@H](CO)O1)NCc1ccncc1,-4.9[16.7 µM],-4.9
C[C@@H]1CN([C@@H](C)CO)C(=O)c2cc(-c3ccc(C(=O)N(C)C)cc3)cnc2O[C@H]1CN(C)Cc1ccc(C(=O)O)cc1,4.4[16.7 µM],-12.1
C[C@@H]1CCCCO[C@H](CN(C)C(=O)Nc2cccc3ccccc23)[C@H](C)CN([C@@H](C)CO)C(=O)c2cc(NC(=O)CCCN(C)C)ccc2O1,12.7[16.7 µM],8.6
COc1ccc(NC(=O)N(C)C[C@H]2OCCCC[C@@H](C)Oc3ccc(NC(=O)CCCN(C)C)cc3C(=O)N([C@@H](C)CO)C[C@H]2C)cc1,-7.6[16.7 µM],19.3
N#C[C@H]1[C@@H](c2ccc(-c3cccc(F)c3)cc2)[C@@H](CO)N1S(=O)(=O)c1cccc(F)c1,14.1[16.7 µM],-8.9
O=C(Nc1cc(Br)ccc1C(=O)NCc1cccc(O)c1)c1ccccc1,-0.3[16.7 µM],-3.8
CNC(=O)C[C@@H]1CC[C@@H]2[C@@H](COc3ccc(NC(=O)c4ccc(F)cc4)cc3C(=O)N2C)O1,-9.9[16.7 µM],1.4
C[C@@H]1CN([C@H](C)CO)C(=O)Cc2cc(NC(=O)c3ccncc3)ccc2O[C@@H]1CN(C)Cc1ccc2c(c1)OCO2,-0.4[16.7 µM],11.2
COc1ccc(NC(=O)N(C)C[C@@H]2Oc3ccc(NC(=O)Nc4ccc(F)cc4)cc3C(=O)N([C@@H](C)CO)C[C@@H]2C)cc1,-12.9[16.7 µM],4.3
CC(C)C#Cc1cnc2c(c1)C(=O)N([C@H](C)CO)C[C@@H](C)[C@@H](CN(C)C(=O)c1ccccc1F)O2,-24.5[16.7 µM],7.8
COc1ccc(NC(=O)Nc2ccc3c(c2)C(=O)N([C@@H](C)CO)C[C@@H](C)[C@H](CN(C)C(=O)Nc2ccccc2)OCCCC[C@@H](C)O3)cc1,-33.9[16.7 µM],-14.5
CCNC(=O)C[C@H]1CC[C@@H]2[C@H](COc3ccc(NC(=O)c4cccc(OC)c4)cc3C(=O)N2C)O1,7.1[16.7 µM],78.9
C[C@@H]1CN([C@H](C)CO)C(=O)c2cc(NC(=O)C3CCCCC3)ccc2O[C@H]1CN(C)Cc1ccc(Oc2ccccc2)cc1,17.3[16.7 µM],-0.1
Cc1noc(C)c1S(=O)(=O)Nc1ccc2c(c1)C(=O)N([C@@H](C)CO)C[C@@H](C)[C@H](CN(C)S(C)(=O)=O)OCCCC[C@@H](C)O2,14.2[16.7 µM],5.7
C/C=C/c1cnc2c(c1)C(=O)N([C@@H](C)CO)C[C@@H](C)[C@H](CN(C)C(=O)c1cnccn1)O2,4.6[16.7 µM],-1.4
C[C@@H]1CN([C@@H](C)CO)C(=O)c2cc(/C=C/c3ccccc3)cnc2O[C@@H]1CN(C)C(=O)CN(C)C,-10.9[16.7 µM],4.7
C[C@@H]1CN([C@H](C)CO)C(=O)c2cc(NS(=O)(=O)c3ccc(F)cc3)ccc2O[C@@H]1CN(C)S(=O)(=O)c1ccccc1,-13.4[16.7 µM],0.6
CC(=O)N(C)C[C@H]1Oc2ncc(-c3cncnc3)cc2C(=O)N([C@H](C)CO)C[C@@H]1C,31.1[16.7 µM],-11.8
COc1ccc(-c2cnc3c(c2)C(=O)N([C@H](C)CO)C[C@H](C)[C@H](CN(C)Cc2ccccc2)O3)cc1,7.8&-19.6[16.7 µM],18.1&27.5
C[C@H](CO)N1C[C@H](C)[C@H](CN(C)C(=O)CCCN(C)C)OCCCC[C@H](C)Oc2ccc(NC(=O)NC3CCCCC3)cc2C1=O,0.5[16.7 µM],21.3
O=C(C[C@@H]1C[C@H]2c3cc(NC(=O)Nc4ccc(C(F)(F)F)cc4)ccc3O[C@H]2[C@@H](CO)O1)NCc1ccc2c(c1)OCO2,4.6[16.7 µM],-11.0
COc1ccc(NC(=O)Nc2ccc3c(c2)C(=O)N([C@H](C)CO)C[C@@H](C)[C@@H](CN(C)S(=O)(=O)c2ccc(Cl)cc2)O3)cc1,2.4[16.7 µM],3.5
O=C(Cc1ccccc1)N[C@H]1C=C[C@H](CC(=O)N2CCOCC2)O[C@H]1CO,-10.7[16.7 µM],-4.1
CN1C(=O)c2cc(NC(=O)c3cccs3)ccc2OC[C@@H]2O[C@@H](CC(=O)NCC3CC3)CC[C@H]21,-14.8[16.7 µM],7.7
C[C@@H]1CN([C@H](C)CO)C(=O)Cc2cc(NC(=O)Cn3cnnn3)ccc2O[C@H]1CN(C)Cc1ccc(C(=O)O)cc1,1.8[16.7 µM],-2.0
C[C@@H]1CN([C@@H](C)CO)C(=O)c2cccc(NC(=O)c3ccc(-c4nccs4)cc3)c2O[C@H]1CN(C)Cc1ccc(Cl)c(Cl)c1,38.1[16.7 µM],-1.7
O=C(C[C@H]1C=C[C@@H](NC(=O)CC2CC2)[C@H](CO)O1)NCc1ccc(-c2ccccc2)cc1,-5.8[16.7 µM],-0.1
C[C@@H]1CN([C@@H](C)CO)S(=O)(=O)c2ccc(C3=CCCCC3)cc2O[C@@H]1CN(C)S(=O)(=O)c1ccc(F)cc1,62.5*[16.7 µM],-4.7
CCCNC(=O)N(C)C[C@@H]1Oc2cc(C#Cc3cccc(F)c3)ccc2S(=O)(=O)N([C@H](C)CO)C[C@@H]1C,14.8[16.7 µM],-9.2
N#C[C@H]1N[C@@H](CO)[C@@H]1c1ccccc1,5.7[16.7 µM],-12.7
COc1ccccc1NC(=O)N[C@@H]1CC[C@@H](CCn2cc(-c3ccccc3OC)nn2)O[C@@H]1CO,-2.3[16.7 µM],-8.6
C[C@@H]1CN([C@@H](C)CO)C(=O)c2cc(NC(=O)c3ccccc3)ccc2O[C@@H](C)CCCCO[C@@H]1CN(C)C(=O)Nc1cccc2ccccc12,-31.2[16.7 µM],-15.3
Cc1noc(C)c1NC(=O)Nc1ccc2c(c1)C(=O)N([C@@H](C)CO)C[C@H](C)[C@H](CN(C)S(=O)(=O)c1c(C)noc1C)O2,10.3[16.7 µM],7.7
O=C(CCN1CCCCC1)N[C@H]1CC[C@H](CCn2cc(-c3cccc(F)c3)nn2)O[C@H]1CO,-12.6[16.7 µM],27.8
O=C(N[C@H]1CC[C@@H](CCNS(=O)(=O)c2ccc(F)cc2)O[C@@H]1CO)c1ccccn1,-11.7[16.7 µM],-6.0
CN(C)Cc1cn(CC[C@@H]2CC[C@@H](NC(=O)Nc3ccccc3F)[C@H](CO)O2)nn1,-5.2[16.7 µM],-9.0
C[C@@H]1CN([C@@H](C)CO)C(=O)Cc2cc(NS(=O)(=O)c3cccs3)ccc2O[C@@H]1CN(C)Cc1ccc(Oc2ccccc2)cc1,1.0[16.7 µM],15.8

# More entries follow:
SMILES,HIV Env fusion,UUG fidelity
CCCN(C)C[C@@H]1OCCCC[C@@H](C)Oc2ccc(NC(=O)CCCN(C)C)cc2C(=O)N([C@H](C)CO)C[C@H]1C,0.5[16.7 µM],8.1
C[C@@H]1CN([C@H](C)CO)C(=O)Cc2cc(NS(=O)(=O)c3cccs3)ccc2O[C@H]1CN(C)Cc1ccc(Cl)c(Cl)c1,2.4[16.7 µM],1.1
COc1ccc(S(=O)(=O)N(C)C[C@H]2OCCCC[C@@H](C)Oc3ccc(NC(=O)NC4CCCCC4)cc3C(=O)N([C@@H](C)CO)C[C@@H]2C)cc1,-1.8[16.7 µM],6.8
C[C@H]1CN([C@@H](C)CO)C(=O)Cc2cc(NC(=O)Cn3cnnn3)ccc2O[C@@H]1CN(C)Cc1ccc2c(c1)OCO2,6.2[16.7 µM],-8.9
C[C@@H]1CN([C@H](C)CO)C(=O)c2cccc(NC(=O)Nc3ccc(C(F)(F)F)cc3)c2O[C@@H]1CN(C)C(=O)Nc1ccc(C(F)(F)F)cc1,27.1[16.7 µM],-14.8
C[C@@H]1CN([C@H](C)CO)S(=O)(=O)c2ccc(-c3cncnc3)cc2O[C@@H]1CN(C)C(=O)C1CCC1,0.6[16.7 µM],-10.5
C[C@H](CO)N1C[C@H](C)[C@H](CN(C)Cc2ccc(C(F)(F)F)cc2)Oc2ccc(NS(=O)(=O)c3ccc(Cl)cc3)cc2CC1=O,-14.0[16.7 µM],1.2
C[C@@H]1CN([C@@H](C)CO)C(=O)c2cc(C3=CCCC3)cnc2O[C@H]1CN(C)C(=O)Cc1ccncc1,6.0[16.7 µM],4.8
O=C(N[C@@H]1CC[C@@H](CC(=O)N2CCCCC2)O[C@@H]1CO)c1ccc2c(c1)OCO2,8.0[16.7 µM],-4.0
C[C@H]1CN([C@@H](C)CO)S(=O)(=O)c2ccc(-c3cccc(C#N)c3)cc2O[C@@H]1CN(C)C(=O)c1ccccc1,-13.7[16.7 µM],-14.9

# Not all compounds are listed; the hit share may differ from the screen's.
